High-throughput results: PubChem BioAssay, Southern Research Institute
Mtb growth – Mycobacterium tuberculosis H37Rv growth inhibition, putative kinase inhibitor library, confirmatory dose response (AID 2842). hit rate 5.2% among 24,000. M. tuberculosis H37Rv growth inhibition; higher % means a stronger effect; some inactives read as strong as hits. one-dose inhibition, % at 10 µg/mL; IC90 in µg/mL for titrated hits;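 active means confirmed in a dose series; about a fifth of its hits are not listed in these tables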;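 further: bacteria incubated one week before Alamar blue readout; 0% = bacteria only wells and 100% = bacteria with high antibiotic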
Numbers without * were called inactive. An excerpt (hit frequency here may not be typical).

SMILES | Mtb growth
CC(Oc1ccc2c3c(c(=O)oc2c1)CCC3)c1ccccc1 (stereo not drawn) | -7.0%
COc1ccc(CC(=O)Nc2nnc(C)s2)cc1OC | -10.9%
CNc1oc(-c2ccccc2Cl)nc1C#N | -8.2%
O=C(COc1ccccc1)Nc1nc2ccccc2s1 | 12.0%
Cc1cc(Cl)ccc1NC(=O)c1ccccc1-c1n[nH]c2c1CCCC2 | 27.4%
COc1ccc(C(=O)CSc2nnc3ccc(-c4cccs4)nn23)cc1 | -6.6%
CC1(C(=O)Nc2ncc(Cc3cccc(C(F)(F)F)c3)s2)Cc2ccccc2C(=O)O1 (stereo not drawn) | 31.3%
COc1cc([N+](=O)[O-])cc(/C=N/c2sc3c(c2C#N)C2CCN3CC2)c1O | 0.4%
COc1cc(NS(=O)(=O)c2ccc(F)c(C)c2)cc(OC)c1 | 10.7%
COc1ccc(-n2c(=O)[nH]c3c(C(N)=O)nc(-c4cccc(OC)c4O)nc32)c(OC)c1 | -23.3%
COc1ccccc1NC(=O)CSc1ccc2nnc(-c3ccccc3)n2n1 | 2.0%
O=c1[nH]c(CSCc2ccccc2)nc2ccccc12 | 29.0%
Cc1cccc(Cn2c(N3CCC(Cc4ccccc4)CC3)nc3c2c(=O)[nH]c(=O)n3C)c1 | 7.8%
O=C(CC1CCS(=O)(=O)C1)NN=Cc1cccc([N+](=O)[O-])c1 (stereo not drawn) | -4.5%
O=C1C=C/C(=N\S(=O)(=O)c2ccc(Cl)cc2)c2ccccc21 | -8.2%
CN(C)CCNc1nc2c(c(=O)[nH]c(=O)n2C)n1Cc1ccc(F)cc1 | -12.6%
CCCCC1CCC(C(=O)Oc2cc(C)[nH]c(=O)c2[N+](=O)[O-])CC1 (stereo not drawn) | -2.7%
COc1ccc(S(=O)(=O)c2cn(Cc3ccc(Cl)cc3)c3ccc(OC)cc3c2=O)cc1 | 0.1%
COc1ccccc1Cn1cc(C(=O)c2ccc(C)cc2)c(=O)c2cc(F)cc(F)c21 | -6.5%
Cc1ccc(Cn2nnc(C(=O)NCc3cccs3)c2N)cc1 | -7.3%
Cc1ccc(C)c(-c2nnc(NC(=O)c3ccccc3F)o2)c1 | <0.2µg/mL*
COc1ccc(NC(=O)c2oc3ccccc3c2NC(=O)c2ccc(Cl)c([N+](=O)[O-])c2)cc1 | 2.2%
CC1Cc2nc(SCC(=O)Nc3ccc(Cl)c(Cl)c3)n(C)c(=O)c2S1 (stereo not drawn) | 29.4%
CCOc1ccc2c(c1)c(=O)c(C(=O)c1ccc(F)cc1)cn2Cc1ccccc1F | -1.9%
Cc1ccc(Nc2ncnc(N)c2[N+](=O)[O-])cc1Cl | 0.8%
Following part
SMILES | Mtb growth
CC1C(=O)N2CCCc3cc(NC(=O)c4ccc(Cl)cc4)cc1c32 (stereo not drawn) | 17.0%
O=C1N=c2ccc(Br)cc2=C1c1sc(=S)n(Nc2ccccc2)c1O | 0.9%
Cc1cccc(-c2nc(SCC(=O)Nc3ccc4c(c3)OCO4)c(-c3ccccc3)[nH]2)c1 | 9.98µg/mL*
CCOc1ccccc1NC(=O)CSc1nc2c(c(=O)n1Cc1ccccc1)SC(C)C2 (stereo not drawn) | 20.6%
O=C(Cn1ccn(-c2ccc3c(c2)OCCO3)c(=O)c1=O)NCc1ccccc1 | -15.1%
COc1cc2c(=O)c(C(=O)c3ccc(C)c(C)c3)cn(Cc3ccccc3F)c2cc1OC | 1.3%
O=C1CCC(=O)N1c1ccc(O)cc1 | 1.3%
O=C(Cn1cnc2c(nnn2-c2ccccc2)c1=O)NCc1ccc(F)cc1 | -6.7%
CCCCOc1ccc(-c2n[nH]c(C)c2-c2ccc3c(c2)OCCCO3)c(O)c1 | 2.9%
Cc1nc2ccc3nc(NC(=O)c4ccccc4Cl)sc3c2s1 | 7.3%
O=C(c1ccccc1[N+](=O)[O-])N1CCN(c2ccc(N3CCOCC3)nn2)CC1 | -1.4%
O=C(Cc1cc(=O)[nH]c(=O)[nH]1)NCCN1CCOCC1 | -3.1%
CCN1CCc2c(sc(NC(=O)c3cccc(N4C(=O)CCC4=O)c3)c2-c2nc3ccccc3s2)C1 | 22.3%
CCOc1ccc(C(=O)Nc2c(N)nc(SCC(=O)N3CCCCCC3)[nH]c2=O)cc1 | -21.1%
CC1CN(C(c2cccs2)c2sc3ncnn3c2O)CC(C)O1 (stereo not drawn) | 1.2%
Cc1c(CCC#N)c(=O)n2c([nH]c3ccccc32)c1C#N | 2.29µg/mL*
COc1cc(C)c(C(C)C)cc1S(=O)(=O)NCC1CCCO1 (stereo not drawn) | -8.2%
CCC(C)Nc1nc2c(c(=O)n(C)c(=O)n2C)n1Cc1ccc(F)cc1 (stereo not drawn) | 16.8%
O=C(CSc1ncc(S(=O)(=O)c2ccc(Cl)cc2)c(=O)[nH]1)Nc1ccccc1F | -11.6%
CCSC1=C(C#N)C(c2cccc(O)c2)CC(=O)N1 (stereo not drawn) | -11.1%
Nn1c(SCC(=O)NCc2ccccc2)nncc1=O | 31.0%
C=CCn1c(SCC(=O)Nc2sc3c(c2C(=O)OCC)CCC3)nc2ccccc2c1=O | 1.6%
CCN1CCc2c(sc(NC(=O)c3ccc(-c4ccccc4)cc3)c2C(N)=O)C1 | -1.3%
O=c1oc2c([N+](=O)[O-])cccc2cc1-c1nc(-c2ccc(F)cc2)cs1 | -3.6%
Cc1cccc(NC2SC(=O)N(CC(=O)O)C2=O)c1 (stereo not drawn) | -3.3%

Given as comma-separated lines: 3 of the compounds above.
molecule,Mtb growth
COc1ccccc1Cn1cc(C(=O)c2ccc(C)cc2)c(=O)c2cc(F)cc(F)c21,-6.5%
Cc1ccc(Cn2nnc(C(=O)NCc3cccs3)c2N)cc1,-7.3%
Cc1ccc(C)c(-c2nnc(NC(=O)c3ccccc3F)o2)c1,<0.2µg/mL*

Entries from the list above that have a thiophene ring, fused or not, in the order listed:
SMILES | Mtb growth
COc1ccc(C(=O)CSc2nnc3ccc(-c4cccs4)nn23)cc1 | -6.6%
COc1cc([N+](=O)[O-])cc(/C=N/c2sc3c(c2C#N)C2CCN3CC2)c1O | 0.4%
Cc1ccc(Cn2nnc(C(=O)NCc3cccs3)c2N)cc1 | -7.3%
CCN1CCc2c(sc(NC(=O)c3cccc(N4C(=O)CCC4=O)c3)c2-c2nc3ccccc3s2)C1 | 22.3%
CC1CN(C(c2cccs2)c2sc3ncnn3c2O)CC(C)O1 (stereo not drawn) | 1.2%
C=CCn1c(SCC(=O)Nc2sc3c(c2C(=O)OCC)CCC3)nc2ccccc2c1=O | 1.6%
CCN1CCc2c(sc(NC(=O)c3ccc(-c4ccccc4)cc3)c2C(N)=O)C1 | -1.3%

The listing picks up with the 2 entries that preceded the break.
SMILES | Mtb growth
O=c1oc2c([N+](=O)[O-])cccc2cc1-c1nc(-c2ccc(F)cc2)cs1 | -3.6%
Cc1cccc(NC2SC(=O)N(CC(=O)O)C2=O)c1 (stereo not drawn) | -3.3%
O=C(CCCn1c(=S)[nH]c2ccccc2c1=O)NCc1cccnc1 | -14.8%
CCNC(=O)CC1Nc2cc(C)c(C)cc2NC1=O (stereo not drawn) | -6.0%
O=C(Nc1nc(-c2cc(Cl)ccc2Cl)cs1)c1ccc2c(c1)OCCO2 | 83.3%
CCOC(=O)C1=C(C)NC(=O)NC1c1c(O)ccc2ccccc12 (stereo not drawn) | 6.3%
CCOC(=O)COc1cccc2c(=O)n(CC(=O)Nc3cccc(OC)c3)ccc12 | -1.0%
COc1ccc(-c2nnc3c4cc(OC)ccc4n(Cc4ccc(Cl)cc4)cc2-3)cc1 | 9.8%
CCOc1ccccc1C(=O)Nc1c(C(=O)Nc2ccccc2)oc2ccccc12 | -0.2%
COc1cccc(C(=O)NCCc2cc3ccc(OC)cc3[nH]c2=O)c1 | 9.8%
Cc1cn(C2OC(COC(=O)c3ccccc3)C(O)C2O)c(=O)[nH]c1=O (stereo not drawn) | -6.5%
Cn1c(=O)[nH]c(=O)c2c1nc(NCc1cccnc1)n2CC(O)COc1ccccc1 (stereo not drawn) | 2.2%
CCOC(=O)C1=C(C)Nc2ncnn2C1c1cccc(OCc2ccccc2)c1 (stereo not drawn) | 2.6%
COC(=O)c1c(N2C(=O)CC(Sc3ncccc3C(=O)O)C2=O)sc(C)c1C (stereo not drawn) | -25.3%
COc1cccc(N2CC(NC(=O)N3CCN(c4ccc(C(C)=O)cc4)CC3)CC2=O)c1 (stereo not drawn) | 5.0%
O=C(Nc1cc2c3c(c1)CCN3C(=O)CC2)c1ccccc1[N+](=O)[O-] | -1.0%
N#C/C(=C\c1ccc(-c2ccc(S(N)(=O)=O)cc2)o1)c1ccc(Cl)cc1 | -11.2%
COc1cc(/C=N/Nc2nncc(=O)[nH]2)ccc1O | -6.5%
CCOc1ccc(NC(=O)c2oc3ccccc3c2NC(=O)CC(C)C)cc1 | 8.1%
O=C(NC(=S)Nc1ccc(S(=O)(=O)N2CCCC2)cc1)c1ccc(-c2ccccc2)cc1 | 4.3%
CCOC(=O)c1nn(-c2ccc(OC)cc2)c(=O)c2c(NC(=O)c3ccc(Br)o3)scc12 | 0.7%
CCOc1ccc(Nc2ncnc3nc[nH]c23)cc1 | -6.7%
O=C(NCCS(=O)(=O)N1CCOCC1)c1ccc2c(c1)OCO2 | -3.4%
CC1C(=O)N2CCCc3cc(NC(=O)Cc4ccc(F)cc4)cc1c32 (stereo not drawn) | -2.7%
CCCCNc1nc2c(c(=O)n(C)c(=O)n2C)n1Cc1ccc(F)cc1 | 3.5%
COc1ccc(Cl)c2sc(N3CCN(C(=O)c4cccs4)CC3)nc12 | -0.2%
CCCNc1nc2c(c(=O)[nH]c(=O)n2C)n1CC(C)C | -9.9%
The listing continues:
SMILES | Mtb growth
Cc1cc(NC(=O)COc2ccc3ccccc3c2)nc2c1c(=O)oc1ccccc12 | -6.5%
NC(=O)CSc1ccc2nnc(-c3cccs3)n2n1 | -4.1%
Cc1cnc(=O)[nH]c1SCC(=O)Nc1ccccc1C(F)(F)F | -10.7%
CCc1cccc(OCC(O)Cn2c(NCCCOC(C)C)nc3c2c(=O)[nH]c(=O)n3C)c1 (stereo not drawn) | -3.1%
Cc1ccc(NC(=O)CC2Sc3ccccc3NC2=O)cc1 (stereo not drawn) | -2.1%
CCOC(=O)c1c(NC(=O)CSc2ncnc3c2oc2ccccc23)sc2c1CCCC2 | 4.7%
O=C(CSc1nccn1-c1cccc(Cl)c1)Nc1cc(C(F)(F)F)ccc1Cl | 8.4%
CC(=O)c1ccc(C(=O)Nc2sc3c(c2-c2nc4ccccc4s2)CCN(Cc2ccccc2)C3)cc1 | 1.4%
Cc1cccc(NC(=O)CSc2nnc3[nH]c(=O)ccn23)c1C | -11.3%
Cc1ccc(NC(=O)CSc2nnc3ccc(-c4cccnc4)nn23)cc1Cl | -4.8%
Cc1ccc(NC(=O)CSc2nc(N)c(NC(=O)c3ccco3)c(=O)[nH]2)cc1 | -20.9%
O=C(CC(NCc1ccccn1)C(=O)O)Nc1cccc([N+](=O)[O-])c1 (stereo not drawn) | -5.9%
O=C(COc1ccc(Cl)cc1)Nc1c(C(=O)Nc2ccccc2F)oc2ccccc12 | -7.7%
COc1cccc2sc(Nc3nnc(-c4ccc(F)cc4)o3)nc12 | 2.97µg/mL*
CC(=O)N1CCc2c(sc(NC(=O)Cc3cccc4ccccc34)c2C(N)=O)C1 | 33.2%
O=C(Nc1nnc(-c2ccncc2)o1)c1ccccc1Br | 2.0%
Cc1ccc(-n2ccnc(SCC(=O)NC3CCCCC3)c2=O)cc1Cl | -21.0%
O=C(NCc1ccc2c(c1)OCO2)c1ccc(Cl)c(S(=O)(=O)N2CCCC2)c1 | -4.3%
O=C(Nc1nc(-c2ccc3c(c2)OCCO3)cs1)C1CCCCC1 | 11.7µg/mL*
Cc1cccc(Cn2cc3c(-c4ccc(F)cc4)nnc-3c3cc4c(cc32)OCCO4)c1 | 14.8%
Cc1ccc(-c2nnc(NC(=O)c3ccc(C#N)cc3)o2)c(C)c1 | 81.5%
Cc1ccc(-n2nnc3c(=O)n(CC(=O)N4CCN(c5ccccc5)CC4)cnc32)cc1Cl | 8.9%
Cc1cc(N2CCOCC2)n2ncc(-c3ccccc3)c2n1 | 4.2%
CCOC(=O)c1nn(-c2cccc(F)c2)c(=O)c2c(NC(=O)c3c(-c4ccccc4Cl)noc3C)scc12 | -0.4%
COc1ccc(CCC(=O)Nc2ccc3c(c2)NC(=O)C(C)(C)CO3)cc1 | 11.3%
(listing goes on)
SMILES | Mtb growth
N#Cc1ccc(-c2csc(NC(=O)c3ccc(N4C(=O)CCC4=O)cc3)n2)cc1 | 14.2%
Fc1ccc(N2CCN(c3nc(Nc4ccc(Cl)cc4)c4nccnc4n3)CC2)cc1 | -10.2%
O=c1cnnc(N/N=C/c2ccc(O)c([N+](=O)[O-])c2)[nH]1 | -8.6%
O=C(NC(Nc1ccccn1)C(Cl)(Cl)Cl)c1ccco1 (stereo not drawn) | -1.1%
CCCn1c2c(c(=O)[nH]c1=O)C(c1ccc(Br)cc1)C1=C(COC1=O)N2 (stereo not drawn) | -5.7%
CCN=C1SC(CC(=O)Nc2ccc(N3CCOCC3)cc2)C(=O)N1CC (stereo not drawn) | -1.1%
CCS(=O)(=O)c1ccc(C(=O)Nc2nc3ccc4nc(C)sc4c3s2)cc1 | 0.7%
Cc1ccc(C)c(C(=O)Nc2sc3c(c2C(N)=O)CCC(C)C3)c1 (stereo not drawn) | 12.6%
COc1ccc(NC(=O)CSc2ncnc3c2oc2ccccc23)cc1 | 8.1%
CCOC(=O)c1nn(-c2ccc(C(F)(F)F)cc2)c(=O)c2c(NC(=O)Cc3ccc(F)cc3)scc12 | -3.1%
O=C(Nc1ccc(Br)cc1)c1cnc2n(c1=O)CCS2 | -4.4%
CCCCN(c1ccccc1)S(=O)(=O)c1cc2c3c(c1)CCN3C(=O)CC2 | 6.3%
CCc1nnc(NC(=O)c2ccccc2Cl)s1 | 0.7%
CCOC(=O)Nc1c(C(=O)Nc2cc(OC)ccc2OC)oc2ccccc12 | 2.4%
O=C(CC(=O)N=Nc1c(O)[nH]c2ccccc12)N=Nc1c(O)[nH]c2ccccc12 | -2.9%
COCCn1c(C)c(C)n2c3c(=O)n(CCC(=O)OC)c(=O)n(C)c3nc12 | -11.0%
O=C(Nc1nnc(-c2ccc(Cl)cc2)s1)c1ccc(C(=O)c2ccccc2)cc1 | -1.4%
Nn1c(SCc2cccnc2)nncc1=O | -13.0%
